MLL AF4-AF9 inh: blocks AF4 peptide binding to human AF9. P42568. AlphaScreen, biotin-AF4 peptide binding to FLAG-AF9. inhibition, % at 10 µM. 350,000 compounds, 0.47% hits;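 active = every replicate reaching a set inhibition limit, whatever the replicate mean, cut at about 25% in these data; inconclusive = mean inhibition reaches that limit but some replicates miss it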;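 also: 0% = plate neutral control median and 100% = total signal loss; the record names both 10 and 1 µM as test concentration; the first replicate is given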
Beta cell apopt: blocks beta cell apoptosis | INS-1E cytokine-induced death, ATP luminescence, 48 h; percent of positive-control rescue, neutral wells zero | protection from apoptosis, % (concentration not given with the values) | 300,000 compounds, 0.8% hits;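 active = all replicates at 75% or more, or half of them and the mean; inconclusive = half reach 75% but not the mean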;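 also: 0% = cytokine-treated negative control wells and 100% = positive control rescue; higher means more ATP so stronger rescue from cytokine killing; wells of about 40 µL received 100 nL stock; the first replicate is given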
Vif TR-FRET: HIV-1 Vif–A3G interaction blockers – biochemical, TR-FRET, GST-Vif 1-94, biotin-A3G peptide, dose response retest, primary screen (AID 1117319); TR-FRET GST-Vif / biotin-A3G peptide binding; higher % means a stronger effect; test concentration not given here; strong numbers were not always called active; inhibition, %, or IC50 in µM where a hit was titrated; 260,000 compounds, 0.57% hits;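 active = above the screen mean plus three standard deviations and confirmed in dose response; inconclusive = results disagree or hit not tested in dose response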;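 also: Vif residues 1-94 fused to GST binding biotinylated APOBEC3G peptide 110-148; 0% = full assay without inhibitor and 100% = GST in place of GST-Vif; retest series ran down from 100 µM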
A1 inh: inhibitors of the anti-apoptotic protein A1, read as caspase activation; MEF A1-2A-BIM cells, Caspase-Glo 3/7 luminescence, 3 h; percent of clofoctol response, vehicle zero; caspase activation, % (concentration not given with the values); 330,000 compounds, 0.066% hits; AID 2462;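 active = over half of replicate activation scores above 10%, or exactly half above 10 with the replicate mean above 10; inconclusive = replicate mean below 10 yet half the replicates above 10; inactive = over half of replicates below 10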;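 also: wells of about 30 µL received 50 nL stock; many hits fall short of the cut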
Calb FLC: affects C. albicans growth with fluconazole | 300,000 compounds, 0.57% hits | growth inhibition, % (concentration not given with the values) | C. albicans CaCi-2 (fluconazole-resistant clinical isolate) + fluconazole, Alamar Blue growth, 48 h;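 active = most replicates above 75%; inconclusive = exactly half above 75%; inactive = most below 75%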;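 also: all wells also contain fluconazole at 8 µg/ml as a sub-toxic cotreatment; 0% = median of DMSO wells and 100% = median of geldanamycin control wells; wells of about 8 µL received 7.5 nL stock; the first replicate is given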
LANA-H2B inh: blocks KSHV LANA binding to histone H2A/H2B; cell-free LANA-H2A/H2B peptide, fluorescence polarization; 320,000 compounds, 0.6% hits; inhibition, % (concentration not given with the values); Q9QR71; AID 2629; in the data active = inhibition mostly above about 10%, no sharp cut-off; inactive = mostly below about 6.7%;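 also: stock transfer was 7.5 nL into about 10 µL; 0% = median of vehicle wells and 100% = median of positive control wells; one replicate is shown; the record names a cut of 25% in any replicate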
Target sequence (Q9QR71 whole entry, looked up): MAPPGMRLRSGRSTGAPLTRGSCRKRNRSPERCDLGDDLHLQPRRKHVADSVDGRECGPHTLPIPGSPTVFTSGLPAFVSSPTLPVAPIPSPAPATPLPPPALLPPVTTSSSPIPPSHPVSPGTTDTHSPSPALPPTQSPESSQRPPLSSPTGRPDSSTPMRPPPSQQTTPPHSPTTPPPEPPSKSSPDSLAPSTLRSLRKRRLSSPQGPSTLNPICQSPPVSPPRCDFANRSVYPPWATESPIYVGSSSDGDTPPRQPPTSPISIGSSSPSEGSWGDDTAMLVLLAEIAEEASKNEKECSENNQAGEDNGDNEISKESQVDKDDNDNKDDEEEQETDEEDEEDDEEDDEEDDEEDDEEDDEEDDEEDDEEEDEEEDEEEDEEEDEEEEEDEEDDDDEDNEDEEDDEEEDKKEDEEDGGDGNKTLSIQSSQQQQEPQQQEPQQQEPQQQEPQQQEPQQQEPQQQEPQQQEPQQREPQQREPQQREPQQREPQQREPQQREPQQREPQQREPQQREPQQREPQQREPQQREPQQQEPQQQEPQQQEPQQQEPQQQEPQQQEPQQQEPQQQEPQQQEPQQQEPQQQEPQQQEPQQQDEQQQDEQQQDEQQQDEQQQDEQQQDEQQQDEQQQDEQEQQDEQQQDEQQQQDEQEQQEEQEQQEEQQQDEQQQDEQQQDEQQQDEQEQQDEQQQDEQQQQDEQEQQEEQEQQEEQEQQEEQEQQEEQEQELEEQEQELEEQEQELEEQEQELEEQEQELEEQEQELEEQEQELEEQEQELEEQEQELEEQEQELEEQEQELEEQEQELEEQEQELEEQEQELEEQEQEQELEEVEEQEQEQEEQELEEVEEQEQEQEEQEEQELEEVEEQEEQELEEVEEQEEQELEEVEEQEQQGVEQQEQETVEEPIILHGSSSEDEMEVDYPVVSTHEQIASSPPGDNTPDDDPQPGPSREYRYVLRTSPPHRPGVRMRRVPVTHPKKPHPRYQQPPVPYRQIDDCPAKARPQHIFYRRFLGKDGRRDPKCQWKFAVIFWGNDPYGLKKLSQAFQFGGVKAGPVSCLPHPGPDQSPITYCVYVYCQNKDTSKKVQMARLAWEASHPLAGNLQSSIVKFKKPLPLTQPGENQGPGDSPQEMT
RanGTP-Impb inh: inhibitors of RanGTP-importin-beta interaction, primary screen, biochemical, FRET, CFP-Ran, YFP-importin-beta, homogeneous; inhibition, % (concentration not given with the values); cell-free CFP-Ran/YFP-importin-beta FRET ratio; AID 2216; 300,000 compounds, 1.1% hits;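 active = most replicates above 15%; inconclusive = exactly half above 15%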;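 also: 0% = DMSO wells and 100% = Ran loaded with GDP instead of GTP; wells of about 40 µL received 100 nL stock; the first replicate is given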
T cruzi repl: T. cruzi replication inhibition; T. cruzi beta-gal in NIH3T3, luminescence, 90 h; inhibition, % (concentration not given with the values); 300,000 compounds, 1.4% hits; AID 1885;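 active = mean inhibition across valid replicates above about 55%, limit read from the data; inconclusive = mean below that limit but half or more replicates reach it; inactive = mean below it, under half of replicates reach it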;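 also: signal also drops with host cell toxicity which is not excluded here; 0% = plate median of DMSO wells and 100% = zero luminescence signal; higher percent means less beta-gal luminescence so fewer parasites; stock transfer was 50 nL into about 50 µL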
* marks the source's active call; other numbers are inactive results.

How did O=C(Cn1ccnc1[N+](=O)[O-])NCc1ccccc1 do in these assays?
MLL AF4-AF9 inh: -2.1; Beta cell apopt: -8; A1 inh: 0.3; Calb FLC: 4; LANA-H2B inh: -1.9; RanGTP-Impb inh: 1.1; T cruzi repl: 52

Results for O=S(=O)(Cc1ccccc1)N1CCN(Cc2ccc(F)cc2Cl)CC1 ?
MLL AF4-AF9 inh: -0.9; A1 inh: 1.4; Calb FLC: 6; LANA-H2B inh: 1.0; RanGTP-Impb inh: 4.1; T cruzi repl: 6

Results for N#CC1=C(N)NC(=S)C(C(N)=O)C1c1ccc(Cl)cc1Cl (stereo not drawn) ?
MLL AF4-AF9 inh: -10; Beta cell apopt: -5; Vif TR-FRET: 4%; A1 inh: 0.7; Calb FLC: -2; LANA-H2B inh: -2.3; RanGTP-Impb inh: 2.1; T cruzi repl: -12

How did CCn1c(CNC(=O)c2ccco2)nnc1SCC(=O)c1ccc(F)cc1 do in these assays?
MLL AF4-AF9 inh: -0.6; Beta cell apopt: 0; A1 inh: -0.3; Calb FLC: 13; LANA-H2B inh: -2.1; RanGTP-Impb inh: 1.9; T cruzi repl: -8

How did COc1ccc(Cl)cc1NC(=O)COC(=O)C1=NNC(=O)CC1 do in these assays?
MLL AF4-AF9 inh: 0.4; Beta cell apopt: -8; Vif TR-FRET: 6%; A1 inh: -1.4; LANA-H2B inh: 2.8

How did Cc1cccc(N2CCN(S(=O)(=O)c3ccc4c(c3)C(C)(C)C(=O)N4C)CC2C)c1 (stereo not drawn) do in these assays?
MLL AF4-AF9 inh: 2.3; Beta cell apopt: 3; A1 inh: -0.4; Calb FLC: 37; LANA-H2B inh: -1.5; RanGTP-Impb inh: inconclusive; T cruzi repl: 25

What do the screens show for `CCC(=O)N1CCN(c2cc(C)ccc2C)CC1`?
Beta cell apopt: -3; Vif TR-FRET: 2%; A1 inh: 0.3; Calb FLC: 14; LANA-H2B inh: 1.2; RanGTP-Impb inh: 0.5; T cruzi repl: -7

How did COc1cccc(N(C(=O)Cn2nnc(-c3ccc(C)o3)n2)C(C(=O)NC(C)(C)C)c2cccs2)c1 (stereo not drawn) do in these assays?
Beta cell apopt: 4; A1 inh: -0.3; Calb FLC: 0; LANA-H2B inh: 2.5; RanGTP-Impb inh: 6.1; T cruzi repl: 11

Results for Cc1ccc(S(=O)(=O)N(C)C)cc1NC(=O)CCNC(=O)c1ccco1 ?
MLL AF4-AF9 inh: -0.5; Vif TR-FRET: -1%; A1 inh: 0.4; Calb FLC: 7; LANA-H2B inh: 12; RanGTP-Impb inh: 9.1; T cruzi repl: -6

What do the screens show for `CC(=O)NC(N(C#N)c1nc(Cl)nc(N(C)C)n1)C(Cl)(Cl)Cl` (stereo not drawn)?
MLL AF4-AF9 inh: 5.7; A1 inh: 0.0; Calb FLC: 0; LANA-H2B inh: -3.9; RanGTP-Impb inh: 2.3; T cruzi repl: -28

Results for Cc1c(NC(=O)c2ccc(Cl)s2)c(=O)n(-c2ccccc2)n1C ?
Beta cell apopt: -3; A1 inh: -0.4; Calb FLC: -11; LANA-H2B inh: -0.3; RanGTP-Impb inh: 1.8; T cruzi repl: -6

Results for O=C(NCCCn1ccnc1)c1sc2cccc(F)c2c1Cl ?
Beta cell apopt: 4; Vif TR-FRET: 9%; A1 inh: 0.2; Calb FLC: 4; LANA-H2B inh: -4.9; RanGTP-Impb inh: 3.9; T cruzi repl: 64*

What do the screens show for `O=C1CCCN1Cc1ncnn1-c1ccccc1`?
Beta cell apopt: 0; Vif TR-FRET: 4%; A1 inh: 0.9; Calb FLC: -1; LANA-H2B inh: -1.4; RanGTP-Impb inh: -0.2; T cruzi repl: -4

Results for CN(Cc1ccc(OC(F)F)cc1)C(=O)c1ccc(S(=O)(=O)N(C)c2ccccc2)cc1 ?
MLL AF4-AF9 inh: -0.5; Beta cell apopt: 3; Vif TR-FRET: 5%; A1 inh: 0.4; LANA-H2B inh: -1.6

What do the screens show for `Cc1c(Cl)cccc1S(=O)(=O)Nc1ccnn1C`?
Beta cell apopt: -6; Vif TR-FRET: -8%; A1 inh: 0.6; Calb FLC: 0; LANA-H2B inh: 4.9; RanGTP-Impb inh: 5.1; T cruzi repl: -8

Of the compounds above, these have a cyano group:
Results for N#CC1=C(N)NC(=S)C(C(N)=O)C1c1ccc(Cl)cc1Cl (stereo not drawn) ?
MLL AF4-AF9 inh: -10; Beta cell apopt: -5; Vif TR-FRET: 4%; A1 inh: 0.7; Calb FLC: -2; LANA-H2B inh: -2.3; RanGTP-Impb inh: 2.1; T cruzi repl: -12

What do the screens show for `CC(=O)NC(N(C#N)c1nc(Cl)nc(N(C)C)n1)C(Cl)(Cl)Cl` (stereo not drawn)?
MLL AF4-AF9 inh: 5.7; A1 inh: 0.0; Calb FLC: 0; LANA-H2B inh: -3.9; RanGTP-Impb inh: 2.3; T cruzi repl: -28

Remaining list, next part:
Results for Cc1nc2cc(C(F)(F)F)ccc2n1C ?
MLL AF4-AF9 inh: -1.4; Beta cell apopt: -2; A1 inh: 0.1; Calb FLC: -11; LANA-H2B inh: 7.7; RanGTP-Impb inh: 2.0; T cruzi repl: -4

Results for O=c1c2nccnc2[nH]c(=S)n1Cc1ccccc1Cl ?
MLL AF4-AF9 inh: 2.1; Beta cell apopt: -4; Vif TR-FRET: 0%; A1 inh: 0.3; Calb FLC: 47; LANA-H2B inh: -2.7; RanGTP-Impb inh: -2.4; T cruzi repl: -1

Results for Cn1c(-c2ccccc2)cnc1SCc1nc2ccccc2c(=O)[nH]1 ?
Beta cell apopt: 5; Vif TR-FRET: inconclusive; A1 inh: 0.4; Calb FLC: 19; LANA-H2B inh: 6.8; RanGTP-Impb inh: -0.8; T cruzi repl: 14

What do the screens show for `CCN(CC(=O)Nc1c(F)cccc1F)C(=O)c1cc([N+](=O)[O-])ccc1N1CCOCC1`?
MLL AF4-AF9 inh: -0.1; Beta cell apopt: 9; Vif TR-FRET: 2%; A1 inh: -0.8; Calb FLC: -3; LANA-H2B inh: -3.4; RanGTP-Impb inh: 3.3; T cruzi repl: 1

What do the screens show for `CCC(C)N(C(=O)COc1ccc(Br)cc1C=O)C1CCS(=O)(=O)C1` (stereo not drawn)?
MLL AF4-AF9 inh: -2.0; Beta cell apopt: 2; Vif TR-FRET: 2%; A1 inh: 0.5; Calb FLC: -9; LANA-H2B inh: 3.4; RanGTP-Impb inh: -0.4; T cruzi repl: -4

How did CCOP(=O)(OCC)C(NC(=O)Nc1ccc(C)cc1)C(N)=O (stereo not drawn) do in these assays?
Beta cell apopt: 0; Vif TR-FRET: -10%; A1 inh: -0.6; Calb FLC: 2; LANA-H2B inh: 9.5; RanGTP-Impb inh: -4.5; T cruzi repl: 2

What do the screens show for `S=C(Nc1ccc(Br)cc1)Nc1ccc2c(c1)OCCO2`?
MLL AF4-AF9 inh: 0.6; Beta cell apopt: 0; A1 inh: 0.6; Calb FLC: 0; LANA-H2B inh: 2.4; RanGTP-Impb inh: -3.7; T cruzi repl: -14

How did COc1ccc(NC(=O)C2CC(=O)N(c3cc(C)ccc3C)C2)cc1 (stereo not drawn) do in these assays?
Beta cell apopt: -7; Vif TR-FRET: 8%; A1 inh: 0.0; Calb FLC: 4; LANA-H2B inh: 6.5; RanGTP-Impb inh: 7.5; T cruzi repl: -6

How did CCOC(=O)c1c(NC(=O)CSc2nnc3c(Cl)cc(Cl)cn23)sc2c1CCC2 do in these assays?
Beta cell apopt: 14; A1 inh: 0.1; Calb FLC: 33; LANA-H2B inh: -1.7; RanGTP-Impb inh: 4.5; T cruzi repl: 31

What do the screens show for `O=c1c2ccccc2ncn1-c1ccc(Br)cc1[N+](=O)[O-]`?
MLL AF4-AF9 inh: 7.2; Beta cell apopt: -13; A1 inh: -0.5; Calb FLC: 4; LANA-H2B inh: -2.4; RanGTP-Impb inh: -2.2; T cruzi repl: 3

Results for O=C(Nc1ccccc1F)Oc1cccc(OC(=O)Nc2ccccc2F)c1 ?
MLL AF4-AF9 inh: -0.2; Beta cell apopt: 1; Vif TR-FRET: -3%; A1 inh: -5.4; LANA-H2B inh: -3.6; RanGTP-Impb inh: 7.8; T cruzi repl: -9

What do the screens show for `OCCNCC(O)Cn1c2ccccc2c2ccccc21` (stereo not drawn)?
MLL AF4-AF9 inh: -0.1; Beta cell apopt: 3; Vif TR-FRET: -7%; A1 inh: -0.9; Calb FLC: 3; LANA-H2B inh: -0.1; RanGTP-Impb inh: 3.0; T cruzi repl: -12

What do the screens show for `CCCCN(C)CCNC(=O)C(NC(=O)C1CCC(C)CC1)C(C)C` (stereo not drawn)?
MLL AF4-AF9 inh: 5.3; Beta cell apopt: 6; Vif TR-FRET: -1%; A1 inh: 0.7; Calb FLC: -2; LANA-H2B inh: 4.6; RanGTP-Impb inh: -1.8; T cruzi repl: 38

How did COc1ccc(C)cc1NC(=O)CCC(=O)Nc1nnc(C2CCCCC2)s1 do in these assays?
MLL AF4-AF9 inh: -0.2; Beta cell apopt: -4; A1 inh: -0.8; Calb FLC: -18; LANA-H2B inh: -5.5; RanGTP-Impb inh: 4.1; T cruzi repl: 8

What do the screens show for `CNC(=S)NNc1nc(N2CCOCC2)nc(N2CCOCC2)n1`?
MLL AF4-AF9 inh: -0.1; Vif TR-FRET: 11%; A1 inh: 0.4; Calb FLC: 8; LANA-H2B inh: 1.7; RanGTP-Impb inh: -0.5; T cruzi repl: -1

What do the screens show for `NC(=O)c1cc2ccc(O)cc2oc1=Nc1ccccc1`?
Vif TR-FRET: 0%; Calb FLC: 37; RanGTP-Impb inh: 176*; T cruzi repl: -16

Results for O=C(Nc1ccccc1Cl)NC1CCCCCCC1 ?
MLL AF4-AF9 inh: -0.9; Beta cell apopt: 6; A1 inh: 0.8; Calb FLC: -9; LANA-H2B inh: 1.6

How did CCOc1ccc(-n2ccnc(SCC(=O)Nc3cccc(OC)c3)c2=O)cc1 do in these assays?
MLL AF4-AF9 inh: 1.2; Beta cell apopt: -12; Vif TR-FRET: -6%; A1 inh: 1.2; Calb FLC: 23; RanGTP-Impb inh: 3.4; T cruzi repl: -5

Results for Cc1cc(=O)oc2cc(OCC(=O)N3CCCC3)c(Cl)cc12 ?
MLL AF4-AF9 inh: -0.7; Beta cell apopt: -7; Vif TR-FRET: -11%; A1 inh: 0.2

What do the screens show for `O=C(CCS(=O)(=O)c1ccccc1)Nc1ccc(Cl)cn1`?
MLL AF4-AF9 inh: -8.8; Beta cell apopt: -2; A1 inh: 1.3; Calb FLC: 7; LANA-H2B inh: -1.0; RanGTP-Impb inh: -1.6; T cruzi repl: -6

Results for CCCCCCNC(=O)Nc1ccccc1 ?
Beta cell apopt: 5; Vif TR-FRET: 4%; A1 inh: -0.4; Calb FLC: 0; LANA-H2B inh: 2.4; RanGTP-Impb inh: inconclusive; T cruzi repl: -1
